miR-21 FLuc: raises the signal of a miR-21 reporter | AID 2288 | Potency, µM (top dose mostly 38.3 µM), for the others: at the highest dose reporter change, positive = more light | HeLa miR-21 FLuc reporter, luciferase, 48 h | 340,000 tested, under 10 active; active = well fitted rising curve with a large enough effect; inconclusive = small, poorly fitted or top-dose-only effect; inactive = no such curve, though single readings can be large or run the other way;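 further: % of control where 0% means no effect; miR-21 action dims this reporter so a rising signal means less miR-21 action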
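HeLa miR-21-FLuc reporter line, endogenous miR-21; 2000 cells/well in DMEM/10% FBS; compound titration up to ~40uM final, 48 h, 37 degree Celsius; luciferase detection reagent, 15 min lysis, CCD luminescence.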
Rango complex inh: Rango-importin beta binding inhibition | Q14974 | Rango CFP/YFP FRET sensor + importin beta, 45 min | Potency, µM (titrated, usually from 92.2 µM), for inactives: top-dose inhibition of complex formation | 340,000 tested, 0.031% active | AID 540263; active = rising FRET ratio curve, often small or poorly fitted; inconclusive = mostly compound fluorescence or quenching in the first reads; inactive = flat curves in all reads;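 further: potency means the concentration at half of the fitted maximal effect; 0% = DMSO wells and 100% = buffer wells lacking importin beta; nearly all actives have a fitted effect of over 15% in size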
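Inhibition scored from the CFP 486 nm/YFP 530 nm FRET ratio 45 min after adding 0.125 microM importin beta to 50 nM Rango biosensor preincubated 5 min with compound (room temperature, PBS with DTT, Tween-20, BSA). No-importin wells as positive control.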
Rango release inh: inhibitors of RanGTP-induced Rango-importin beta complex dissociation; Biochemical FRET Rango-importin beta, RanGTP-induced dissociation; Potency, µM (doses to about 46.1 µM), without a hit: at the top dose activity change, negative = inhibition; 340,000 tested, 0.071% active; AID 540253; active means falling FRET ratio curve, often poorly fitted, with flat reads before Ran was added; inconclusive means other falling curves, or compound fluorescence or quenching; inactive means flat or rising ratio curve;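 further: potency means the concentration at half of the fitted maximal effect; % of control where 0% means no effect; nearly all actives have a fitted effect of over 45% in size; -100% = wells without RanGTP and RCC1; the record marks most hits as doubtful in a second field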
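Compounds preincubate 5 min with complex of recombinant Rango and importin beta in PBS with 1 mM DTT. Ran (0.6 uM) loaded with 2 mM GTP plus 0.2 uM RCC1 starts dissociation; FRET is recorded 45 min later.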
GLA inh pH 4.5: inhibitors of human alpha-galactosidase A at pH 4.5; P06280; activity change, negative = inhibition, % at 105 µM; purified enzyme, 4-MU-alpha-Gal fluorescence, pH 4.5; AID 1467; 230,000 tested, under 10 active; inconclusive = small, poorly fitted or top-dose-only inhibition, or a rising curve; inactive = flat fitted curve, though single readings scatter; no compound was filed as active;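 further: 0% = full activity with enzyme and -100% = basal without enzyme; dose as in the result columns while the protocol names 77 µM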
Target sequence (P06280 whole entry, looked up): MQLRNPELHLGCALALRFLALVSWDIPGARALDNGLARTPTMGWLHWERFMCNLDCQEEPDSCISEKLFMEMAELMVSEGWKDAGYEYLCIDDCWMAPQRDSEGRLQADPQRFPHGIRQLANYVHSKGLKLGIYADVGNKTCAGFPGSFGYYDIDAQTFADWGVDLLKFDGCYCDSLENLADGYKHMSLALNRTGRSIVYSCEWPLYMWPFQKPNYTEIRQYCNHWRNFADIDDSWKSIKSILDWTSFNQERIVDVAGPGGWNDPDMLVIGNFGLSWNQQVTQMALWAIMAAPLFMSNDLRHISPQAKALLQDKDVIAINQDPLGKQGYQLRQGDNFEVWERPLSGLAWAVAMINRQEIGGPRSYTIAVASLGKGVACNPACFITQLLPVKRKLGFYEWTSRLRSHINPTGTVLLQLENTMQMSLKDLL
Numbers without * were called inactive; ? = inconclusive; nt = not tested or not shown; & = joins results of further samples; [ ] = remark or other dose. Not all compounds are listed; the hit share may differ from the screen's.

cpd	mol	miR-21 FLuc	Rango complex inh	Rango release inh	GLA inh pH 4.5
1	O=C(Nc1cccnc1)c1cc(-c2ccc(Cl)cc2Cl)on1	-76%	?	6%	nt
2	O=C(Cn1cnc([N+](=O)[O-])n1)N/N=C/c1ccccc1O	3%	-0.4%	2%	7
3	O=C(CCC(=O)N1CCCC1)N1CCCC1	-1%	-1.9%	-11%	nt
4	Oc1ccc(/C=N/NC(=S)NCc2ccco2)cc1	-17%	-2.0%	0%	2
5	CC(=O)NC12CC3CC(C1)CC(C(=O)N1CCN(S(=O)(=O)c4cccs4)CC1)(C3)C2	nt	6.0%	17%	nt
6	c1ccc2c(CSc3nnc(-c4ccncc4)o3)cccc2c1	-10%	?	0%	-8
7	COc1ccc(S(=O)(=O)N(C)C[C@@H]2Oc3ccc(NC(=O)Nc4c(C)noc4C)cc3C(=O)N([C@H](C)CO)C[C@@H]2C)cc1	nt	0.0%	-4%	nt
8	COCC(=O)Nc1cc(Cl)ccc1C(F)(F)F	-2%	nt	nt	-2
9	CCOC(=O)N1CCN(c2nc(-c3ccc(OC)cc3)no2)CC1	-14%	-4.2%	3%	-3
10	C=CCCC(=O)Nc1ccc(COC(=O)N2CCOCC2)cc1	1%	1.5%	2%	1
11	COc1ccc(C(=O)N/C(=C\c2cn(C)c3ccccc23)C(=O)NCCN2CCOCC2)cc1OC	-1%	0.0%	24%	nt
12	O=c1oc(C2(O)CCCCC2)cc2ccc(Br)cc12	nt	-0.8%	-1%	nt
13	CC(C)N(C(=O)COC(=O)c1ccccc1C(=O)c1ccc(Cl)c([N+](=O)[O-])c1)C(C)C	20%	?	-2%	-14
14	COc1ccc(N2CCN(C(=O)COC(=O)c3cccc(S(=O)(=O)Nc4cccc(C)c4)c3)CC2)cc1	nt	?	-17%	nt
15	COC(=O)c1cccc(N(C(=O)c2cnccn2)C(C(=O)NCc2ccccc2)c2ccco2)c1 (configuration not stated)	-1%	-0.5%	-18%	-3
16	O=C1OC(Nc2ccccn2)c2ccccc21 (configuration not stated)	0%	-1.6%	-6%	-8
17	CCOc1ccc(NC(=O)CSC2=NCCN2)cc1	5%	4.7%	3%	-9
18	CC1CCN(CCOc2ccc(C(=O)c3ccccc3)cc2)CC1	5%	-5.0%	0%	nt
19	Cc1ccccc1-n1cc(CNC(=O)CC2C(=O)NCCN2C/C=C/c2ccccc2)cn1 (configuration not stated)	-1%	-3.8%	20%	-1
20	CN(c1ccccc1)S(=O)(=O)c1ccc2[nH]c(=O)oc2c1	-1%	-3.7%	18%	nt
21	Nc1ccc(O)c(-c2nc3ccccc3s2)c1	-46%	?	10µM*	-1
22	COc1cc(/C=C2\SC(=S)N(Nc3ncc(C(F)(F)F)cc3Cl)C2=O)ccc1O	-7%	?	?	1
23	Cc1cc(=O)n2nc(N3CCCC3C(=O)Nc3cccc(F)c3)sc2n1 (configuration not stated)	-7%	-2.3%	?	nt
24	O=C(CNC(=O)c1ccc(OC(F)F)cc1)Nc1cccc(S(=O)(=O)N2CCCC2)c1	nt	-5.8%	-14%	nt
25	Nc1c2c(nc3ccccc13)CSCC2	nt	-1.6%	14%	nt
26	COc1cc(CN(C2CCCCC2)S(=O)(=O)c2ccc(S(=O)(=O)N(C)C3CCCCC3)cc2)cc(OC)c1OC	-6%	-1.3%	-5%	-4
27	CC(=O)Nc1ccc(NC(=O)CSc2nnc(-c3cc(C)[nH]n3)n2N)cc1	-3%	-4.2%	2%	nt
28	Nc1scc[n+]1Cc1cccc2cccnc12	-1%	-5.0%	-5%	8
29	COc1cccc(C(=O)NNC2OC(CO)C(O)C2O)c1 (configuration not stated)	-21%	?	2%	-11
30	O=C(N/N=C/c1ccc(Br)s1)c1cccnc1	-20%	2.6%	-5%	8

The closing 2 records of the part above are carried over, then new ones follow:
cpd	mol	miR-21 FLuc	Rango complex inh	Rango release inh	GLA inh pH 4.5
29	COc1cccc(C(=O)NNC2OC(CO)C(O)C2O)c1 (configuration not stated)	-21%	?	2%	-11
30	O=C(N/N=C/c1ccc(Br)s1)c1cccnc1	-20%	2.6%	-5%	8
31	Cc1ccc(Cn2c(CN3CC(C)OC(C)C3)nc3c2c(=O)[nH]c(=O)n3C)cc1 (configuration not stated)	-19%	-4.7%	-10%	5
32	C=C1C(=O)C23C(O)C1CCC2C12CCCC(C)(COC(C)=O)C1C(O)C3(O)OC2 (configuration not stated)	nt	1.9%	-4%	nt
33	CCN(CC)S(=O)(=O)c1ccc(N2CCc3ccccc3C2)nc1	27%	-2.6%	-15%	nt
34	Cc1ccc(CN2CCC(CNC(=O)Nc3ccccc3F)CC2)cc1	-1%&9%	-3.0%	-1%	nt
35	C/C(=N\NC(=O)CSc1nc2ccccc2o1)c1cccc(O)c1	-17%	-1.4%	13%	2
36	O=C(CCS(=O)(=O)c1ccc(Br)cc1)Nc1ccccn1	-2%	-0.1%	-29%	4
37	CC(=O)N1CCCN(Cc2cn(-c3cc(C)ccc3C)nc2-c2ccccc2)CC1	3%	-0.3%	-14%	2
38	O=C(COc1ccccc1)NCC(=O)N1CCCCCC1	nt	?	-8%	nt
39	O=C(Nc1ccc(O)c(-c2nc3ccccc3s2)c1)C1=COCCO1	-6%	?	?	-5
40	CCOC(=O)c1c(C)[nH]c(C)c1S(=O)(=O)N1CCN(C(=O)c2ccco2)CC1	-7%	-2.3%	-8%	nt
41	O=C(Nc1ccc(N2CCCC(O)C2)cc1)c1snc2c(=O)[nH]cnc12 (configuration not stated)	-6%	0.4%	-1%	-3
42	CS(=O)(=O)c1nc(-c2ccccc2)c(-c2ccccc2)[nH]1	-5%	-0.3%	-8%	0
43	Cc1nn(-c2ccccc2)c(Cl)c1/C=C1\SC(=S)N(C)C1=O	1%	-3.9%	10%	-5
44	COc1cc(NC(=O)COc2ccc(C)c(C)c2)ccc1NC(=O)c1ccco1	-7%	1.5%	-14%	nt
45	Cc1ccc(NS(=O)(=O)c2cccc(C(=O)NCCc3c[nH]c4ccccc34)c2)c(C)c1	25%	4.4%	25%	-2
46	O=C1c2ccccc2C(=O)N1CN(C(=O)c1ccccc1)c1ccc(O)cc1	3%	?	-10%	-1[21.1 µM]
47	CN(CC(=O)Nc1cccc(F)c1)CC(=O)N(C)CC(=O)Nc1ccccc1Br	nt	2.5%	-5%	nt
48	CC1CCCC(C)N1CCNC(=O)CCn1nc(-c2ccccc2)ccc1=O (configuration not stated)	2%	-3.6%	1%	1
49	O=C(Cc1n[nH]c(=O)[nH]c1=O)N/N=C/c1cccc(O)c1	8%	-2.0%	0%	2
50	O=C(N/N=C/c1cccnc1)c1cccc(NC(=O)c2ccccc2Cl)c1	-8%	-1.4%	1%	nt
51	COc1ccc(S(=O)(=O)N2CCOC2CNC(=O)C(=O)NCCCN(C)C)cc1C (configuration not stated)	nt	2.2%	-10%	nt
52	Cc1ccc(C2(c3noc(CN(C)Cc4ccccn4)n3)CCCC2)cc1	7%	-0.2%	10%	-3
53	COc1ccc2[nH]c3c(c2c1)CCN1C(=O)C(CC(=O)NCc2ccco2)C[C@H](C(=O)N2CCCCC2)[C@@]31CCc1ccccc1 (some centres not stated)	nt	2.4%	7%	nt
54	Cc1ccc2cc(COC(=O)C3CCCO3)c(=O)[nH]c2c1 (configuration not stated)	-3%	-0.4%	-3%	-1
55	Cc1ccc2oc(C(=O)NCC3CCOCC3)c(C)c2c1	-36%	1.0%	6%	nt
56	O=C1c2ccccc2C(=O)N1c1ccc(Cl)cc1	0%	nt	nt	0
57	CC(C)c1ccc(N(C(=O)CNC(=O)c2ccco2)C(C(=O)NC2CCCC2)c2ccncc2)cc1 (configuration not stated)	-14%	-1.7%	1%	nt
58	COc1cc(C2SCC(=O)N2CCCN(C)C)cc(OC)c1OC (configuration not stated)	2%	0.8%	-1%	10
59	CCN(CC(=O)Nc1cc(Cl)ccc1C)C(=O)c1cc(S(=O)(=O)N2CCCCCC2)ccc1OC	nt	-0.6%	4%	nt
60	COc1ccc(-c2nc3ccccc3nc2-c2ccc(OC)c(OC)c2)cc1OC	4%	?	?	nt
61	COc1ccc(C)cc1Nc1cc(C)nc2ncnn12	-8%	-0.6%	2%	3
62	CCc1cccc(NC(=O)c2cc(S(=O)(=O)N(C)C)ccc2N2CCCC2)c1	3%	-9.3%	8%	-6
63	Cc1ccc(Nc2nc3ccccc3n3nnnc23)cc1	-32%	2.6%	-13%	9
64	O=C(Nc1cccc(Cl)c1)c1cnn2cccnc12	-52%	1.8%	-6%	4
65	Cc1noc(C)c1COc1ccc(C(=O)OCC(=O)Nc2cccc(S(=O)(=O)N3CCOCC3)c2)cc1	-2%	-2.3%	-7%	5
66	Cc1cccc(NC(=O)C[n+]2cccc(C)c2)c1	-2%	1.6%	-6%	nt
67	COCCN(C(=O)CCC(=O)Nc1nccs1)C(C(=O)NC(C)(C)C)c1ccc(F)cc1 (configuration not stated)	0%	-2.2%	1%	nt
68	N#C/C(=C\c1ccc(O)c(Br)c1)C(=O)NCc1ccccc1	-3%	?	?	6
69	CCC1(c2ccc(F)cc2)NC(=O)N(CC(=O)Nc2ccc(-c3nc4ccc(C)cc4s3)cc2)C1=O (configuration not stated)	-16%	?	-19%	6
70	COc1ccc(-c2ocnc2C(=O)NCc2nn(-c3ccccc3)nc2C)cc1	16%	?	-2%	-5
71	O=C(NCC(=O)N1CCN(C(=O)c2ccco2)CC1)c1cccc(Cl)c1	nt	-1.0%	-17%	nt
72	CC1CCCCC1NC(=O)CN1CCN(Cc2ccccc2Cl)C1=O (configuration not stated)	-8%	-0.3%	8%	1
73	Cc1ccc(N2CC(C(=O)N3CCN(C(=O)c4ccco4)CC3)CC2=O)cc1 (configuration not stated)	2%	3.9%	4%	-2
74	CC(=O)C[C@@H](O)CC(=O)[C@@H]1OC(=O)CCCCC/C=C/Cc2ccccc21	nt	0.8%	-8%	nt
75	Cn1c(CCNC(=O)c2ccco2)nc2cc(NC(=O)c3ccco3)ccc21	-41%	0.1%	-11%	1
76	CCOc1ccccc1NC(=O)CN(c1ccc(C)cc1)S(=O)(=O)c1c(C)noc1C	19%	-0.4%	7%	-15
77	c1ccc2c(c1)ncn2Cc1nnc2sc(-c3ccncc3)nn12	-9%	-2.1%	-3%	-4
78	Cc1ccc(NC(=O)c2c(Cl)n(C)c3ccccc23)cc1	-6%	?	5%	7
79	Cc1cc(C)nc(NC(=O)Nc2ccc3c(c2)OCO3)c1	-49%	3.0%	21%	8
80	Cc1ccc(/C=C/C(=O)Nc2ccc(S(=O)(=O)Nc3ncccn3)cc2)cc1	-5%	1.9%	16%	-4
81	C=C[C@]12CC[C@H](OC(C)=O)CC1=CCC1C2CC[C@@]2(C)C1CCC21OCCO1 (some centres not stated)	nt	5.1%	0%	nt
82	COC(=O)C(NC(=O)c1ccccc1)(Nc1cc(C)cc(C)n1)C(F)(F)F (configuration not stated)	-3%	0.8%	1%	-11
83	COc1ccc(CCNC(=O)c2sc3nc4n(c(=O)c3c2C)CCC4)cc1	nt	5.7%	-1%	nt
84	O=C1c2ccccc2-c2cccc(NS(=O)(=O)c3ccc(C(F)(F)F)cc3)c21	11%	?	?	-4
85	COc1cccc2cc(NC(=O)C3CCCCC3)c(=O)oc12	-34%	-5.0%	17%	6
86	Cc1cc(C(=O)OCC(=O)Nc2ccc(F)c(F)c2)c(C)o1	-5%	-2.4%	1%	-8
87	CN(Cc1ccc(F)cc1)C(=O)COc1ccc2ccccc2c1	-12%	-1.6%	-4%	nt
88	Cn1c(SCc2cccc([N+](=O)[O-])c2)nc2c(c1=O)SCC2	20%	3.1%	-5%	-8

Screening data: PubChem BioAssay, National Center for Advancing Translational Sciences (NCATS)
